RecA splice inh: inhibitors of M. tuberculosis RecA intein splicing | AID 2221 | hit rate 0.75% among 290,000 | inhibition, %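 (about 9 µM by stock and volumes)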 | P9WHJ3 | cell-free RecA intein splicing, fluorescence; in the data active means inhibition above about 30%; inconclusive means no clear call, values can overlap the other calls;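 further: 0% = vehicle wells and 100% = reference inhibitor control wells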
Target sequence (P9WHJ3 whole entry, looked up, canonical isoform): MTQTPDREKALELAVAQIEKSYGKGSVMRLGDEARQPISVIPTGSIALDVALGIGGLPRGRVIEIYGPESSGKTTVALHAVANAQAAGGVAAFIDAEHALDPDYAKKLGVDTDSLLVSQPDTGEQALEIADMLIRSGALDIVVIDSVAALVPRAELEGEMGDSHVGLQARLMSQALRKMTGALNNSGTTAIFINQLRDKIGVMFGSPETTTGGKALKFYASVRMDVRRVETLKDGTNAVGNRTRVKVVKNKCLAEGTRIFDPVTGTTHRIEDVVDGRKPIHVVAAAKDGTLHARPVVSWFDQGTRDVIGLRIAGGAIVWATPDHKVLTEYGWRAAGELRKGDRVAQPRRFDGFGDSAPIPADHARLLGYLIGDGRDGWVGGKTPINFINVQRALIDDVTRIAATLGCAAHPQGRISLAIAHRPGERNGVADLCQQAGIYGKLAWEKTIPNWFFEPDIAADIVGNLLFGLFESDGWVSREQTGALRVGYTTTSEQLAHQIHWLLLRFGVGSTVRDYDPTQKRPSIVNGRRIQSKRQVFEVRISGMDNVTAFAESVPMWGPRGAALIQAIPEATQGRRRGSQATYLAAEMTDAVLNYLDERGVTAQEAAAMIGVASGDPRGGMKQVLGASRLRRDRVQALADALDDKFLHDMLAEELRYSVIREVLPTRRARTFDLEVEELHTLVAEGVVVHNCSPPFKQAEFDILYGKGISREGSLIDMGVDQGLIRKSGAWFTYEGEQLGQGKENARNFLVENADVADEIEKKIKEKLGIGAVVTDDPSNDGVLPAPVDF
Arbovirus anti: blocks arbovirus infection. AID 1251. inhibition, % at 10 µM. hit rate 0.37% among 200,000. arbovirus infection cell-based antiviral screen;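 active means inhibition from about 30%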;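 further: bluetongue infection of BSR cells; cell survival read as ATP light after 72 h; 0% = infected wells without compound and 100% = uninfected wells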
YopH PTP inh: YopH (Yersinia) phosphatase inhibition | fluorescence Ex485/Em525 | inhibition, %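 (about 10 µM by stock and volumes)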 | hit rate 0.16% among 140,000;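 active means inhibition of 50% or more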;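 further: controls were vehicle for no effect and minimum signal wells for full effect; inactives centre near -20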
Mtb H37Rv: M. tuberculosis H37Rv growth inhibitors, H37Rv strain (AID 1626); M. tuberculosis H37Rv growth inhibition; higher % means a stronger effect; inhibition, % at 10 µM, or IC50 in µM where a hit was titrated; hit rate 0.95% among 220,000;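 active means confirmed in a dose series; inconclusive means inhibition above 80% but not taken into the dose series; inactive means below 80% or under 30% at every dose of the series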;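 further: bacteria incubated seven days before Alamar blue readout; 0% = bacteria only wells and 100% = bacteria with antibiotic wells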
Mtb betalactam: beta-lactam sensitization of Mtb H37Rv; M. tuberculosis H37Rv growth with meropenem, percent inhibition; hits of this screen are not shown here; inhibition, % at 25 µM; hit rate 0.27% among 330,000; AID 434955;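 active means about 74% or more and at least 40 points above the plate without the antibiotic, then above 30% in a dose series; inconclusive means first-round hits that could not be retested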;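 further: growth measured after seven days incubation then overnight dye step; 0% = bacteria only wells and 100% = bacteria with antibiotic; twin plates without the antibiotic show which effects depend on it; some results filed as inactive read as strong as hits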
Arbovirus anti repeat: second read-out of Arbovirus anti, no call of its own (marks repeat the call); inhibition, %; measured here: 10K subset replicate screen; many hits read low in the repeat;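 first of two repeat runs on a subset; 0% = infected and 100% = uninfected wells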
An asterisk follows results filed as active; ? = inconclusive; · = not tested or not shown. This is a subset; rates above refer to the full screens.

SMILES	RecA splice inh	Arbovirus anti	YopH PTP inh	Mtb H37Rv	Mtb betalactam	others
Cc1nc(C(=O)NC2CCCCC2)sc1C1(C)CC(c2cccnc2)=NO1 (stereo not given)	0.0	·	·	5%	-5
COc1ccc(OC)c(N/C(=N/C(=S)Nc2ccccc2)Nc2nc(C)cc(C)n2)c1	1.0	·	·	5%	-2
CC1Cc2ccccc2N1C(=O)Cn1cnc2ccccc2c1=O (stereo not given)	-4.1	2	-25	-13%	-2	Arbovirus anti repeat=-2
COc1ccccc1CN(C)C(=O)c1cc(-c2cc(OC)c(OC)c(OC)c2)nc2ccccc12	16	·	·	·	6
CCOCCCNC(=O)CCC(=O)NNc1nc2ccccc2c2nc(C)nn12	-3.6	4	·	-2%	3
CSc1ccc(/C=N/NC(=O)C[n+]2ccccc2)cc1	0.2	·	·	·	?
COc1ccccc1-c1cc(C(=O)Nc2cc(C)nn2-c2ccccc2)no1	-3.7	-17	-14	4%	?
O=C(O)c1ccc(N/N=C/c2cccc3nccnc23)cc1	·	·	·	2%	13
COCCn1c(C)cc(C(=O)COC(=O)c2ccc(N3CCCC3=O)cc2)c1C	1.7	-2	7	-10%	-5
Cc1nc(C(=O)Nc2ccc(Cl)cc2)sc1C1(C)CC(c2ccccc2)=NO1 (stereo not given)	-1.8	·	·	5%	64
Cc1cc(=O)oc2cc3c(cc12)OCCO3	1.0	2	-6	-2%	-1
CC12COC3(P(=O)(c4ccccc4)c4ccccc4)CC1CCC23CP(=O)(c1ccccc1)c1ccccc1 (stereo not given)	16	-12	·	13%	3
COc1ccc(C(=O)NCC(c2ccc(F)cc2)N2CCOCC2)cc1S(=O)(=O)N1CCCC1 (stereo not given)	-0.9	-4	-11	1%	-1
CC(=O)c1c(N2CCN(Cc3ccccc3)CC2)nc(=S)n(Cc2ccccc2)c1C	-31	13	-27	1%	3
O=C(COC(=O)c1ccccc1C(=O)c1ccc(Cl)cc1)NCc1ccccc1	7.3	8	-12	1%	6
Cc1ccc(-c2cc(C(=O)N/N=C/c3ccc([N+](=O)[O-])o3)c3ccccc3n2)o1	-4.6	·	·	·	19
Oc1cccc2ccc[n+](CC(O)Cn3c4ccccc4c4ccccc43)c12 (stereo not given)	7.8	4	-22	20%	8
Cc1ccc(C(=O)Nc2cccc(C(=O)NCc3ccccc3)c2)o1	2.8	-36	-27	-5%	-4
COc1ccc(Nc2nnc(-c3ccc(N4CCOCC4)c([N+](=O)[O-])c3)c3ccccc23)cc1	·	-18	-4	-4%	·
COC(=O)c1c(NC(C)=O)sc(C(=O)Nc2ccccc2OC)c1C	1.9	-5	·	-2%	5
CC(C)c1ccc(N=C2NN=C(c3cccs3)CS2)cc1	3.8	-3	·	0%	2
O=C(c1cccc(Oc2ccccc2)c1)N1CCN(c2ccccn2)CC1	5.5	1	·	9%	-7
CCOc1cc(C(=O)NC(C)CC)cc(OCC)c1OCC (stereo not given)	-1.7	4	-44	-2%	2
CS(=O)(=O)N(C(=O)NC(=O)NC12CC3CC(CC(C3)C1)C2)C1CCCCC1	-1.8	3	·	-4%	0
COc1ccccc1S(=O)(=O)Cc1ccc(C(=O)NCc2ccccc2)o1	-1.1	·	·	·	2
O=C(C1CCN(S(=O)(=O)N2CCOCC2)CC1)N1CCN(c2ccccc2F)CC1	0.3	6	·	1%	4
CCOc1cc(/C=N/NC(=O)c2ccncc2)ccc1OC(=O)c1ccco1	15	·	·	·	98
CC(C)CC(c1nnnn1CC1CCCO1)N1CCN(c2cccc(Cl)c2)CC1 (stereo not given)	0.5	-8	-42	7%	4
COc1cccc(CNC(=O)CCC2CCCN(C3CCOCC3)C2)c1 (stereo not given)	0.3	1	·	0%	-5
COc1ccc(/C=N/NC(=O)c2ccncc2)cc1CSc1nc2ccccc2s1	19	-13	-29	?	98
CC(C)CCN1CCN(Cc2ccsc2)CC1CCO (stereo not given)	-3.9	-9	·	2%	4
O=C(COC(=O)CCCSc1nc2ccccc2[nH]1)Nc1ccc(Cl)cc1	3.6	6	-37	3%	-2
Cc1cccc(C)c1OCC(O)Cn1c2ccccc2c2ccccc21 (stereo not given)	12	-32	-21	-1%	33
CC(C)=CC(=O)OCc1csc(CC(=O)Nc2ccccc2C)n1	0.2	·	·	·	-7
COc1ccc(NC(=O)Cn2c(=O)n(-c3ccc(OC)cc3OC)c(=O)c3c(C)c(C)sc32)cc1	2.3	3	-23	1%	1
CN1CCN(C(=O)C2=C[C@@H](c3ccc(C(F)(F)F)cc3)C[C@@H](OCc3ccc(CO)cc3)O2)CC1	2.2	-1	·	1%	-2
Cc1cc(C(F)(F)F)n(-c2nc(C(=O)NNS(=O)(=O)c3ccccc3[N+](=O)[O-])cs2)n1	5.9	-10	·	4%	2
O=C(OCc1ccc2c(c1)OCO2)c1ccc(S(=O)(=O)N2CCCCC2)cc1	-1.0	9	-32	5%	-2
COCCn1c(C)nc2oc3ccc(Br)cc3c(=O)c2c1=O	4.0	2	-18	-2%	?
Nn1cnnc1N/N=C/c1ccc(F)cc1	-0.3	·	·	·	53
Cc1ccc(C(=O)N/C(=C/c2ccco2)C(=O)N2CCCCCC2)cc1	0.1	·	·	·	-1
O=C(NC1=NC2CCCCC2N1)c1ccccc1 (stereo not given)	·	3	-28	2%	0
Cc1ccc(S(=O)(=O)c2nnn3c2nc(N2CCC(C(N)=O)CC2)c2ccccc23)cc1C	0.6	·	·	·	-5
Cc1ccc([N+](=O)[O-])cc1NC(=S)NCCc1ccccc1	5.1	·	·	·	-4
CC(CC(=O)N1CCN(c2ccccc2)CC1)c1ccccc1 (stereo not given)	-2.2	3	-29	6%	-9
Cc1ccc(-c2nnc(SCC(=O)Nc3cccc(C(=O)N4CCOCC4)c3)n2C)cc1	-3.2	3	-24	-5%	-2
Cc1nnc(Nc2ccc(Cl)cc2)s1	1.3	·	·	-1%	-5
CC1(C)C2CCC1(CS(=O)(=O)NC(CC(=O)O)c1cccc(Br)c1)C(=O)C2 (stereo not given)	-0.5	·	·	·	-1
CC(NC(=O)COC(=O)CNC(=O)c1ccc(-c2ccccc2)cc1)c1ccccc1 (stereo not given)	6.7	·	·	·	2
CCN1C(=O)/C(=C\c2nc3ccccc3c(=O)n2CC)c2ccccc21	7.1	-4	·	3%	19
Additional entries
SMILES	RecA splice inh	Arbovirus anti	YopH PTP inh	Mtb H37Rv	Mtb betalactam	others
O=C(Cn1cc(C(=O)c2ccco2)c2ccccc21)Nc1ccccc1F	0.9	-8	·	0%	-7
Cc1ccc(Oc2ncc(CN3CCOCC3)s2)cc1	-5.9	-5	-14	7%	2
Cc1ccc2c(c1)N(CC(=O)NCCCN1CCN(C)CC1)C(=O)CO2	-3.5	·	·	·	-1
CN(C)/C=C(/C(=O)c1ccc(Cl)cc1Cl)S(=O)(=O)c1ccc(Cl)cc1	-0.5	0	-27	4%	-4
O=C(NN=C1CCC(c2ccccc2)CC1)c1cc2c(s1)CCCC2 (stereo not given)	1.6	-19	-17	1%	-3
Cc1cc(C)nc(/N=C(\N)Nc2ccc(C(C)C)cc2)n1	-3.6	·	·	4%	0
c1ccc(COc2ccc(OCCOCCn3cncn3)cc2)cc1	1.0	-7	-14	-1%	-1
NS(=O)(=O)c1ccc(Cc2ncc(C(F)(F)F)cc2Cl)s1	2.2	9	-16	·	-1
COc1ccccc1CNC(=O)[C@@H]1CCCN1C(=O)C1CCN(S(=O)(=O)c2ccc(C)cc2)CC1	-0.2	4	-32	-11%	11
O=C(Cn1c(=O)n(-c2cccc(C(F)(F)F)c2)c(=O)c2sccc21)NCC1CCCO1 (stereo not given)	-1.8	·	·	·	2
C=CCn1c(Cc2cccs2)nnc1SCC(=O)Nc1cc(OC)cc(OC)c1	16	1	-38	3%	-1
COc1ccc(N2CCN(C(C)C(=O)Nc3nnc(C)s3)CC2)cc1 (stereo not given)	-1.6	-6	·	-2%	6
COC(=O)c1ccc(NC(=O)c2cn(-c3cccc(C)n3)cn2)cc1	·	-1	-55	1%	·
O=C(COc1ccccc1)NN1C(=O)CSC1=S	11	3	·	-5%	1
O=C(Nc1cccc(S(=O)(=O)N2CCCCC2)c1)c1cccs1	0.3	·	·	·	-21
CCOC(=O)c1c(C)c(C(=O)N2CCN(c3cccc(Cl)c3)CC2)c(C)n1C	7.8	-11	-37	-1%	·
Cn1cc(C=O)c2cc(S(=O)(=O)N3CCOCC3)ccc21	3.8	2	0	-1%	-6
CCOC(=O)c1sc2nc(N3CCOCC3)c3c(c2c1N)CC(C)(C)N(C)C3	-16	5	-18	-4%	-2
CC(=O)N1CCN(C(=S)Nc2ccc(SC(F)F)cc2)CC1	-1.1	10	·	-3%	-17
O=C(CC12CC3CC(CC(C3)C1)C2)NCC(=O)N1CCCC1	1.3	9	-26	-10%	-9
Nn1c(SCC(=O)Nc2ccc3c(c2)OCCO3)nnc1-c1cccnc1	-5.3	·	·	·	-4
CCOc1ccc(-c2c(=O)n(OCc3nc4ccccc4[nH]3)c3ccccc3[n+]2[O-])cc1	-10	·	·	-4%	-2
CCOC(=O)/C=c1\s/c(=C\c2c(OCC)ccc3ccccc23)c(=O)n1CC(=O)NCC1CCCO1 (stereo not given)	-1.9	-9	-20	4%	5
Cc1nc2ccccc2nc(C)c1=NOCc1cccc(Cl)c1	8.2	1	·	·	-4
O=S(=O)(c1cc(Cl)sc1Cl)N1CCCC1	-1.7	·	·	-7%	5
Cc1cccc(C)c1NC(=O)COn1nnc2ccc(C(F)(F)F)cc21	-0.3	-4	1	-13%	6
O=C(Cn1ccc(C(F)(F)F)n1)N=Nc1c(O)[nH]c2ccccc12	3.0	-4	·	-3%	0
CCN(CC)CCOC(=O)c1cccc(Br)c1	-1.2	2	-12	-8%	2
O=C(N/N=C/c1ccc([N+](=O)[O-])cc1)c1cc(C2CC2)[nH]n1	1.3	·	·	·	1
CCN1CCCC1CNS(=O)(=O)c1ccc(Br)cc1 (stereo not given)	-0.2	·	·	·	2
CCc1ccc(N2CC(C(=O)Nc3nc4ccc(S(C)(=O)=O)cc4s3)CC2=O)cc1 (stereo not given)	-22	·	·	·	-5
COc1ccc(OCCN2C(=O)NC3(CCc4ccccc4C3)C2=O)cc1 (stereo not given)	-1.6	0	-1	1%	-7
COCCNC(=S)N/N=C(\C)c1ccccc1O	0.2	8	-49	78%	95
COc1ccc(CN2CCn3ncc(C(=O)Nc4ccccc4)c3C2=O)cc1	3.0	3	-21	-8%	3
COc1cccc(N(CC(=O)N2CCOCC2)S(C)(=O)=O)c1	1.5	·	·	·	12
COc1ccc(Cc2nnc(SCC(=O)Nc3nc(C)cs3)o2)cc1	1.2	-7	27	0%	34
COc1ccc(N2C(=O)C(CC(=O)O)S/C2=C\C(C)=O)cc1 (stereo not given)	-1.1	-3	-22	-4%	-11	Arbovirus anti repeat=0
COc1cc(C)ccc1OCCOCCOc1ccccc1[N+](=O)[O-]	-0.2	0	-43	11%	0
CSc1ccc(CNC(=O)Cn2nc(C)c3c(C)n(-c4ccc(C)cc4)nc3c2=O)cc1	0.5	·	·	·	0
COC(=O)C1CCN(C(=O)COC(=O)CCc2nc3ccccc3c(=O)[nH]2)CC1	0.4	2	-30	-10%	-1
CC(C)CCNC(=O)c1onc(CSc2ccc(Cl)cc2)c1C(=O)NCCC(C)C	4.1	·	·	15%	-1
O=C(COC(=O)CNC(=O)c1ccco1)NCc1ccc(F)cc1	-2.6	0	·	2%	-7
O=c1[nH][nH]c2nc(C(F)(F)F)cc(C(F)(F)F)c12	-3.7	-1	-13	5%	11

Source: PubChem (several laboratories)
